Screens as filed in PubChem.
TRPML1 inh = blocks the human TRPML1 channel | Q9GZU1 | TRPML1-inducible cells, Ca2+ dye fluorescence, FDSS; stronger effect = lower value; inhibition of EC80 agonist-evoked calcium signal | activity change, negative = inhibition, % (no concentration beside the values) | 390,000 tested, 0.02% active | AID 624415; in the data active means activity change below about -50%; inconclusive means about -30% to -50%; inactive means above about -30%;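 note: stimulus is agonist 54-4 at its EC80 concentration; % is set by controls: 0 for no effect and ±100 for the full control effect; compound concentration not given in the record; the text of the record puts the active cut at -80%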
Target sequence (Q9GZU1 whole entry, looked up): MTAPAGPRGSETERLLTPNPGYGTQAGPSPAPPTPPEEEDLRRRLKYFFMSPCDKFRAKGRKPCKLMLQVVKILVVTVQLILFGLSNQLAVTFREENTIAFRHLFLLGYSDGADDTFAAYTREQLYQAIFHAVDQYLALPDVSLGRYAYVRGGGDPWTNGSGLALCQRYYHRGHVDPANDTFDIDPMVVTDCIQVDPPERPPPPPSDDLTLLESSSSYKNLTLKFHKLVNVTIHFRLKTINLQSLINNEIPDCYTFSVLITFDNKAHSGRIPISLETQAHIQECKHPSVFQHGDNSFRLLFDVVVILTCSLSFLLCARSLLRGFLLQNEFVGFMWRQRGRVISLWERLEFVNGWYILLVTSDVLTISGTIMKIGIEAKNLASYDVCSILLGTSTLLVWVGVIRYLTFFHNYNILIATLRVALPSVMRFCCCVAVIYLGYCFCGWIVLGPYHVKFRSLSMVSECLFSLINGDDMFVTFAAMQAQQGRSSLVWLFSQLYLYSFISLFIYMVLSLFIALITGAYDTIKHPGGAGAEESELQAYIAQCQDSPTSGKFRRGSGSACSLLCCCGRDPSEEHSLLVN
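TRPML1-DL cells, Tet-induced overnight (~16 h, 37 °C) at 1,500 cells/well, were loaded with Ca8 no-wash dye plus quencher for 45-90 min at room temperature. Compounds were pinned during FDSS kinetic reading; agonist 54-4 at EC80 (4 uM final) then added.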
Six1-Eya2 blk = inhibitors of human Six1/Eya2 interaction; 360,000 tested, 0.56% active; activity change, % (test concentration not listed); AID 651725; AlphaScreen GST-Six1/His-Eya2 binding, biochemical; stronger effect = lower value; control for the full effect not named in the record; in the data active = activity change below about -65%; inconclusive = about -30% to -65%; inactive = above about -30%; note: % is set by controls: 0 for no effect and ±100 for the full control effect; compound concentration not given in the record
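Compounds are tested against tagged Six1 and Eya2 proteins bridged by glutathione donor and nickel acceptor beads; after a one-hour incubation at 37 °C without light, AlphaScreen emission is recorded.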
CtBP-E1A blk = blocks the CtBP interaction with E1A | AlphaScreen GST-E1A/His-CtBP binding, 1536-well; stronger effect = lower value; control for the full effect not named in the record | activity change, % (no concentration beside the values) | 340,000 tested, 0.49% active | AID 651724; in the data active means activity change below about -65%; inconclusive means about -30% to -65%; inactive means above about -30%; note: % is set by controls: 0 for no effect and ±100 for the full control effect; compound concentration not given in the record
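Protein mix (5X: 125 nM each GST-E1A, His-CtBP) was incubated with pinned compound 2 h at 37 deg C in dark, in 50 mM Tris pH 8.0 buffer with 300 mM NaCl. Glutathione donor and nickel acceptor beads followed; AlphaScreen signal read after 1 h.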
D2 ag = human D2 receptor agonism in beta-arrestin assay. P14416. DiscoveRx PathHunter D2 beta-arrestin, luminescence, 90 min; 100% = 57 uM dopamine signal. activation, % (no concentration beside the values). 360,000 tested, 0.084% active. AID 624465; in the data active = activation above about 40%; inconclusive = about 15% to 40%; inactive = below about 15%; note: compound concentration not given in the record; the text of the record calls up to 30% inactive
Target sequence (P14416 whole entry, looked up): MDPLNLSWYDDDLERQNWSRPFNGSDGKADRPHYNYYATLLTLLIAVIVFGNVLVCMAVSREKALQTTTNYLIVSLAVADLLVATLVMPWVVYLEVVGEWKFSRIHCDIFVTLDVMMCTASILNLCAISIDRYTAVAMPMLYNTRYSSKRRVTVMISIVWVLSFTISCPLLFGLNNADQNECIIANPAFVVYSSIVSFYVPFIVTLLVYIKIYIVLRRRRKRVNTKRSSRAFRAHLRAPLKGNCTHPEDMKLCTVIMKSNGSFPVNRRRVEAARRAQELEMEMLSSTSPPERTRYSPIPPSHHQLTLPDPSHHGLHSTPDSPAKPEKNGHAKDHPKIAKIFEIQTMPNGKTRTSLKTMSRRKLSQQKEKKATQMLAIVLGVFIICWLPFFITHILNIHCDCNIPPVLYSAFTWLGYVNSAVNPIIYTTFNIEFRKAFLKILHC
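DiscoveRx PathHunter D2 beta-arrestin cells (2,100/well) attached overnight, then compound-stimulated 90 min at 37 C in HBSS/10 mM HEPES/0.1% Tween-20 buffer; beta-galactosidase complementation read by luminescence after 1 h at ambient temperature. Dopamine 57 uM final (EC100) as control.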
TRPML1 agonist = agonists of human TRPML1 channel | Q9GZU1 | TRPML1-expressing cells, Ca2+ dye fluorescence, FDSS; host cell line not named in the record; reference of the full effect not given here | activation, % (concentration not given with the values) | 410,000 tested, 0.12% active | AID 624414; in the data active = activation above about 50%; inconclusive = about 30% to 50%; inactive = below about 30%; note: 0% is about no effect; the text of the record puts the active cut at 80%
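Kinetic FDSS Ca2+ read in Tet-induced TRPML1-DL cells (ABD Ca8 dye plus quencher, 45-90 min RT loading): baseline, then compound, then 110 s agonist window; EC80 agonist 54-4 at 4uM final added afterwards for a 110 s antagonist window.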
PINK1 modulator = modulators of PINK1 expression; PINK1 immunofluorescence, high-content cytometry, 24 h; Potency, µM (top dose mostly 76.6 µM), for inactives: top-dose activation (PINK1 increase), actives largely listed as activators; 410,000 tested, 0.2% active; active = well fitted activation curve with a large enough effect; inconclusive = small, poorly fitted or top-dose-only effect; inactive = flat fitted curve, though single readings scatter; cell line not stated here;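 note: potency is the fitted concentration of half-maximal effect; % of control where 0% means no effect; nearly all actives have a fitted effect of over 65% in size; a mitochondrial uncoupler was the plate control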
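Decision-based qHTS: stable cells, 24 h exposure to five compound concentrations, CCCP as control. Fixed cells stained for PINK1 plus nuclear, mitochondrial and cell markers, cytometer read.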
Numbers without * were called inactive; & = joins results of further samples; [ ] = dose if it differs, or a comment.

`CCOc1ccc(N(CC(=O)Nc2ccccc2C(=O)NCc2ccco2)S(C)(=O)=O)cc1` gave TRPML1 inh -2, Six1-Eya2 blk -5, CtBP-E1A blk -4, D2 ag -2.8, TRPML1 agonist 2.2 and PINK1 modulator 6.0%[38.3 µM].
`Cc1ccc(C)c(N2CCN(CCCNC(=O)c3ccc4nc(N5CCCCC5)sc4c3)CC2)c1` gave TRPML1 inh -20, TRPML1 agonist -0.7 and PINK1 modulator -0.1%.
CCOC(=O)c1c(NC(=O)CSc2nnc(-c3cccc(C)c3)n2CC)sc(C(C)=O)c1C was read as TRPML1 inh -10, Six1-Eya2 blk -16, CtBP-E1A blk -3, D2 ag 0.7, TRPML1 agonist 0.5 and PINK1 modulator 10%.
CC(C)c1ccc(NC(=O)CN2C(=O)c3ccccc3S2(=O)=O)cc1 was read as TRPML1 inh 7, Six1-Eya2 blk -2, CtBP-E1A blk 6, D2 ag 1.0, TRPML1 agonist -0.3 and PINK1 modulator 1.3%.
For CCc1ccccc1N(C(=O)c1cccs1)C1C=CS(=O)(=O)C1 (stereo not drawn) the results were TRPML1 inh 10, Six1-Eya2 blk 4, CtBP-E1A blk 6, D2 ag -1.6, TRPML1 agonist -0.1 and PINK1 modulator -5.5%[38.3 µM].
Screening CCN1C(=O)c2cccc3c(S(=O)(=O)NC(Cc4ccccc4)C(=O)O)ccc1c23 (stereo not drawn) returned TRPML1 inh -23, Six1-Eya2 blk -5, CtBP-E1A blk -6, D2 ag -1.8, TRPML1 agonist 0.3 and PINK1 modulator 0.6%.
Screening Cc1[nH]c2ccc(C(=O)N3CCN(c4ccc(F)cc4)CC3)cc2c1C returned TRPML1 inh 23, Six1-Eya2 blk -24, CtBP-E1A blk -15, D2 ag 4.0, TRPML1 agonist 0.5 and PINK1 modulator -0.9%.
CC(=NCCCNC1CCCCC1)C1=C(O)CC(C)(C)CC1=O was read as TRPML1 inh 3, Six1-Eya2 blk -3, CtBP-E1A blk -1, D2 ag -4.6, TRPML1 agonist -0.7 and PINK1 modulator 1.2%.
For CN(CCOc1ccccc1)S(=O)(=O)c1ccc2oc3ccccc3c2c1 the results were TRPML1 inh 15, Six1-Eya2 blk 11, CtBP-E1A blk 25, D2 ag -5.0, TRPML1 agonist 2.4 and PINK1 modulator 0.5%.
COc1ccccc1-c1csc(NC(=O)c2cc(-c3cccs3)nc3ccccc23)n1 was read as TRPML1 inh 11, Six1-Eya2 blk -4, CtBP-E1A blk -15, D2 ag -3.5, TRPML1 agonist -0.2 and PINK1 modulator 1.9%.
For CC(C)Nc1nc(NC(C)C)nc(N(C#N)CCOc2ccc(Cl)cc2Cl)n1 the results were TRPML1 inh 16, Six1-Eya2 blk 1, CtBP-E1A blk -20, D2 ag -0.6, TRPML1 agonist 2.6 and PINK1 modulator inconclusive.
For CCOc1ccc(CCNC(=O)Cn2nc(C)c3c(C)n(-c4ccccc4)nc3c2=O)cc1 the results were TRPML1 inh -5, Six1-Eya2 blk -2, CtBP-E1A blk 0, D2 ag -2.4, TRPML1 agonist -0.9 and PINK1 modulator -0.1%.
`N#C/C(=C/c1ccccc1)C(=O)NCc1ccccc1` gave TRPML1 inh -4, Six1-Eya2 blk -8, CtBP-E1A blk -13, D2 ag 1.1, TRPML1 agonist 0.8 and PINK1 modulator 6.2%.
For O=C(O)CSc1ncn[nH]1 the results were TRPML1 inh -1, Six1-Eya2 blk 13, CtBP-E1A blk -1, D2 ag 0.1, TRPML1 agonist 0.7 and PINK1 modulator -1.3%.
For Cc1cccc(C(=O)OCC(=O)Nc2sc3c(c2C#N)CCC3)c1 the results were TRPML1 inh 14, Six1-Eya2 blk 14, CtBP-E1A blk 8, D2 ag -2.3, TRPML1 agonist 1.0 and PINK1 modulator -0.1%.
Screening CCOc1ccc(/C(CCC(=O)O)=N/NC(=S)NC(C)C)cc1 returned TRPML1 inh 9, Six1-Eya2 blk 12, CtBP-E1A blk 0, D2 ag -4.4, TRPML1 agonist 0.6 and PINK1 modulator -0.7%.
Screening CCN(CC)S(=O)(=O)c1ccc(OC)c(NC(=O)c2sc3ccccc3c2Cl)c1 returned TRPML1 inh 18, TRPML1 agonist 0.9 and PINK1 modulator 1.3%.
COc1ccccc1C(=O)NC(=O)CSc1nc2nc(C)cc(C)n2n1 was read as TRPML1 inh 4, Six1-Eya2 blk 5, CtBP-E1A blk 0, D2 ag -3.0, TRPML1 agonist 3.8 and PINK1 modulator 0.9%.
Screening O=c1c2ccccc2nc2ccccn12 returned TRPML1 inh -9, Six1-Eya2 blk -2, CtBP-E1A blk -1, D2 ag -4.3, TRPML1 agonist 0.2 and PINK1 modulator -1.0%.
Cc1noc(C)c1COc1cccc(C(=O)NCc2cccc(Cl)c2)c1 was read as TRPML1 inh 18, Six1-Eya2 blk 5, CtBP-E1A blk 2, D2 ag -1.4, TRPML1 agonist 2.7 and PINK1 modulator 0.9%.

Part of the list above in order of SMILES length, falling.
For CCOc1ccc(CCNC(=O)Cn2nc(C)c3c(C)n(-c4ccccc4)nc3c2=O)cc1 the results were TRPML1 inh -5, Six1-Eya2 blk -2, CtBP-E1A blk 0, D2 ag -2.4, TRPML1 agonist -0.9 and PINK1 modulator -0.1%.
Screening CCN(CC)S(=O)(=O)c1ccc(OC)c(NC(=O)c2sc3ccccc3c2Cl)c1 returned TRPML1 inh 18, TRPML1 agonist 0.9 and PINK1 modulator 1.3%.
COc1ccccc1C(=O)NC(=O)CSc1nc2nc(C)cc(C)n2n1 was read as TRPML1 inh 4, Six1-Eya2 blk 5, CtBP-E1A blk 0, D2 ag -3.0, TRPML1 agonist 3.8 and PINK1 modulator 0.9%.

Next part
For COc1ccccc1C(=O)Nc1ccccc1OCc1cc(=O)n2ccccc2n1 the results were TRPML1 inh -18, TRPML1 agonist 1.2 and PINK1 modulator 12%.
For CCOC(=O)[C@H]1[C@H]2COc3ccccc3[C@@H]2N2C(=O)c3cc(C)ccc3NC(=O)[C@@]12C the results were TRPML1 inh -15, Six1-Eya2 blk -3, CtBP-E1A blk 0, D2 ag 1.0, TRPML1 agonist -0.2 and PINK1 modulator 1.1%.
Screening NC(=S)NN=C1c2cc(OCCN3CCOCC3)ccc2-c2ccc(OCCN3CCOCC3)cc21 returned TRPML1 inh -13, Six1-Eya2 blk -14, CtBP-E1A blk inconclusive, D2 ag 3.3, TRPML1 agonist 0.4 and PINK1 modulator -2.9%.
Screening Nc1nnc(SCC(=O)c2ccc([N+](=O)[O-])cc2)s1 returned TRPML1 inh -1, Six1-Eya2 blk -2, CtBP-E1A blk -5, D2 ag 8.1, TRPML1 agonist -0.7 and PINK1 modulator 0.7%.
For C1=CCC(/C=N/n2cnnc2)CC1 (stereo not drawn) the results were TRPML1 inh 4, Six1-Eya2 blk -1, CtBP-E1A blk 0, D2 ag -2.2, TRPML1 agonist -0.2 and PINK1 modulator -0.6%.
`Cc1ccc(-c2nnn(CC(=O)N(c3ccc4c(c3)OCCO4)C(C(=O)NCC3CCCO3)c3ccc(F)cc3)n2)o1` (stereo not drawn) gave TRPML1 inh -10, Six1-Eya2 blk 0, CtBP-E1A blk 0, D2 ag -16, TRPML1 agonist 2.4 and PINK1 modulator 15%.
For Cc1ccccc1NC(=O)Cn1nnc(C(=O)NCc2ccco2)c1N the results were TRPML1 inh 6&3, Six1-Eya2 blk 0, D2 ag -0.2, TRPML1 agonist 0.9&-1.0 and PINK1 modulator 12%&3.2%.
NS(=O)(=O)c1ccc(CNC(=O)C2CCCCC2)cc1 was read as TRPML1 inh -1, Six1-Eya2 blk -1, CtBP-E1A blk 4, D2 ag 3.2, TRPML1 agonist -0.3 and PINK1 modulator 8.6%[38.3 µM].
Cc1ccc(S(=O)(=O)NC2CC(C)(C)NC(C)(C)C2)cc1C was read as TRPML1 inh 22, Six1-Eya2 blk 2, CtBP-E1A blk 5, D2 ag -3.1, TRPML1 agonist 0.8 and PINK1 modulator -0.1%.
For COCCN(C(=O)CNC(=O)c1ccco1)C(C(=O)NC1CCCCC1)c1cccs1 (stereo not drawn) the results were TRPML1 inh 6, Six1-Eya2 blk -2, CtBP-E1A blk -1, D2 ag -5.1, TRPML1 agonist -1.0 and PINK1 modulator 0.7%.
Screening COc1ccc(NC(=O)CC(Cc2ccc(Cl)cc2)C(=O)O)cc1 (stereo not drawn) returned TRPML1 inh 4, Six1-Eya2 blk -2, D2 ag -2.4, TRPML1 agonist 1.0 and PINK1 modulator 1.1%.
O=C(CCCN1C(=O)c2cccc3cccc(c23)C1=O)NCc1ccco1 was read as TRPML1 inh -5, Six1-Eya2 blk 12, D2 ag -3.1, TRPML1 agonist 1.2 and PINK1 modulator 6.4%.
Screening CCN(c1ccccc1)S(=O)(=O)c1ccc(C(=O)NC2CCCCC2)cc1 returned TRPML1 inh 13, Six1-Eya2 blk -4, CtBP-E1A blk 0, D2 ag 2.5, TRPML1 agonist -1.0 and PINK1 modulator 0.5%.
For NS(=O)(=O)c1ccc(N/N=C/c2ccc(C(=O)O)cc2)c([N+](=O)[O-])c1 the results were TRPML1 inh -7, Six1-Eya2 blk 1, CtBP-E1A blk 3, D2 ag -3.5, TRPML1 agonist 0.1 and PINK1 modulator -0.8%.
COc1ccc(Cc2c(N)nc(C)nc2N)cc1 was read as TRPML1 inh 8, Six1-Eya2 blk 9, CtBP-E1A blk 5, D2 ag 1.0, TRPML1 agonist 0.3 and PINK1 modulator 1.3%.
Screening Cc1ccccc1NC(=S)N1CCCCCC1 returned TRPML1 inh -1, Six1-Eya2 blk 4, CtBP-E1A blk 7, D2 ag 2.1, TRPML1 agonist -0.2 and PINK1 modulator 1.9%.
Oc1cccc(C(=S)N2CCC(Cc3ccccc3)CC2)c1 was read as TRPML1 inh -2, Six1-Eya2 blk -11, CtBP-E1A blk -1, D2 ag 0.4, TRPML1 agonist 0.9 and PINK1 modulator 3.6%.
`O=C1COc2ccc(S(=O)(=O)N3CCCCC3)cc2N1` gave TRPML1 inh 0, Six1-Eya2 blk 0, D2 ag -0.8, TRPML1 agonist 0.1 and PINK1 modulator 1.0%.
CCc1ccccc1S(=O)(=O)Cc1ccc(C(=O)NCC2CCCO2)o1 (stereo not drawn) was read as TRPML1 inh 7, Six1-Eya2 blk 23, CtBP-E1A blk 0, D2 ag -2.1, TRPML1 agonist 0.2 and PINK1 modulator -2.4%.
Screening Cc1ccc(S(=O)(=O)NC(CC(=O)NCc2ccco2)c2ccco2)cc1 (stereo not drawn) returned TRPML1 inh -20, Six1-Eya2 blk 2, CtBP-E1A blk -4, D2 ag 1.4, TRPML1 agonist 1.0 and PINK1 modulator -4.2%.
O=C(Cn1c2ncccc2c(=O)n1-c1ccccc1)Nc1ccc(Cl)cc1C(F)(F)F was read as TRPML1 inh 5, TRPML1 agonist -0.8 and PINK1 modulator 1.5%.
`COc1ccc(-n2c(=S)[nH]c3cc(C(=O)NCc4cccnc4)ccc3c2=O)cc1` gave TRPML1 inh -1, Six1-Eya2 blk 1, CtBP-E1A blk 1, D2 ag -2.9, TRPML1 agonist 0.5 and PINK1 modulator 1.2%.
